Screening results from PubChem.
DUX4 txn inh: inhibitors of DUX4-driven ZSCAN4 reporter expression, primary screen, 293T cells, Gaussia and Italica luciferase | 293T-iDUX4 ZSCAN4-Gaussia luciferase reporter, 24 h; stronger effect = lower value | activity change, negative = inhibition, % (test concentration not listed) | 0.8% of 37,000 active | AID 1224904, 2016;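 active means -10% or lower and over 25 points stronger than a control reporter; inconclusive means -10% or lower with a smaller gap; inactive means above -10%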;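 further: 0% = median of neutral control wells and -100% = median of positive control wells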
DUX4 txn inh difference: recorded beside DUX4 txn inh, whose call it bears; Gaussia minus Italica difference, %; measured here: selective DUX4 reporter inhibition;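 worked out from the two reporters; negative = selective loss of the DUX4 reporter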
DUX4 txn inh control: recorded beside DUX4 txn inh, whose call it bears; activity change, negative = inhibition, %; measured here: Italica tet-on control reporter;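 0 = neutral control and -100 = positive control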
* = called active by the depositor; ? = inconclusive; . = no result given.

SMILES	DUX4 txn inh	DUX4 txn inh difference	DUX4 txn inh control
O=C(C[C@@H]1C[C@@H]2c3cc(NC(=O)NC4CCCCC4)ccc3O[C@@H]2[C@@H](CO)O1)NCCc1ccccc1	-7	-6	-0.2
COc1ccc(S(=O)(=O)Nc2ccc3c(c2)C(=O)N([C@@H](C)CO)C[C@@H](C)[C@H](CN(C)C(=O)Nc2cccc4ccccc24)OCCCC[C@@H](C)O3)cc1	-1	0	-1.2
CCCN1[C@H](C(=O)N[C@H](C)c2ccccc2)[C@@H](CO)[C@@H]2Cn3c(ccc(-c4ccc(F)cc4)c3=O)[C@@H]21	?	.	.
Cc1ccccc1-c1ccc(C2[C@H]3CNC[C@@H]2N3Cc2cncnc2)cc1 (stereo partly drawn)	9	13	-4.6
CCCNC(=O)N1[C@H](C#N)[C@H](c2ccccc2-c2ccc(OC)cc2)[C@@H]1CO	10	4	5.3
O=C(C[C@@H]1C=C[C@@H](NS(=O)(=O)c2ccc(F)cc2)[C@H](CO)O1)N1CCc2ccccc2C1	?	.	.
C[C@@H]1CN([C@H](C)CO)S(=O)(=O)c2ccc(-c3cccc(F)c3)cc2O[C@@H]1CN(C)S(=O)(=O)c1ccccc1	-3	-3	0.2
O=C(Cc1ccccc1)N1C[C@@H]2[C@H](c3ccccc31)[C@H](CO)N2C(=O)c1ccc(F)cc1	2	3	-0.9
O=C(C[C@H]1CC[C@@H]2[C@H](COC[C@H](O)CN2CC2CCOCC2)O1)NCC1CCCCC1	8	0	8.1
C[C@H](CO)N1C[C@H](C)[C@@H](CN(C)C(=O)Nc2ccc(C(F)(F)F)cc2)Oc2ccc(NC(=O)NC3CCCCC3)cc2CC1=O	-1	0	-1.0
C/C=C/c1ccc([C@@H]2[C@H](CO)N(S(C)(=O)=O)[C@H]2CN(CC)C(=O)CC)cc1	0	-3	3.2
COc1ccc(CN2C[C@@H](C)[C@@H](OC)CN(C)C(=O)c3ccc(NC(C)=O)cc3OC[C@H]2C)cc1	-1	-3	1.6
CCCC#Cc1ccc2c(c1)O[C@@H](CN(C)S(=O)(=O)c1cccc(F)c1)[C@@H](C)CN([C@H](C)CO)S2(=O)=O	3	0	3.1
COC(=O)C[C@H]1CC[C@@H]2[C@H](COC[C@H](O)CN2C(=O)Nc2cccc(F)c2)O1	4	-3	7.1
CO[C@@H]1CN(C)C(=O)c2cc(NS(=O)(=O)c3cn(C)cn3)ccc2OC[C@@H](C)NC[C@H]1C	-1	-4	3.4
C[C@H](CO)N1C[C@H](C)[C@@H](CN(C)S(=O)(=O)Cc2ccccc2)OCc2ccccc2-c2c(n(C)c3ccccc23)C1=O	?	.	.
COc1ccc(S(=O)(=O)Nc2ccc3c(c2)C(=O)N([C@H](C)CO)C[C@@H](C)[C@@H](CN(C)Cc2ccncc2)O3)cc1	-1	3	-4.0
C/C=C/c1ccc([C@H]2[C@@H](CO)N(C(=O)CN(C)C)C23CN(C(=O)C2CCOCC2)C3)cc1	6	8	-2.5
C[C@@H](O)C#Cc1ccc2c(c1)O[C@@H](CN(C)C(=O)Cc1ccccn1)[C@@H](C)CN([C@@H](C)CO)S2(=O)=O	-1	-4	2.7
COc1ccc2c3c(n(C)c2c1)[C@@H](CO)N(C(=O)c1ccc(F)cc1)CC31CCN(CC2CC2)CC1	2	12	-10
CCCC#Cc1ccc2c(c1)[C@H]1[C@H](CCN1S(=O)(=O)c1ccc(F)cc1)[C@H](CO)N2C	7	3	3.3
COc1ccc(S(=O)(=O)N(C)C[C@H]2OCc3ccccc3-c3ccccc3C(=O)N([C@H](C)CO)C[C@H]2C)cc1	-3	-5	2.2
O=C(NCc1ccc(F)cc1)[C@H]1[C@H](CO)[C@H]2Cn3c(cccc3=O)[C@@H]1N2C(=O)C1CC1	-2	-3	0.6
COc1ccc(C(=O)Nc2ccc3c(c2)C(=O)N(C)C[C@@H](OC)[C@@H](C)CN(C)[C@H](C)CO3)cc1	-1	1	-1.6
CO[C@H]1CC[C@@H]2CCOc3ccc(C#N)cc3C(=O)N(C)C[C@H](c3ccccc3)CC(=O)N(C)C[C@@H]1O2	2	-1	2.5

Some of the entries so far, with each value named.
C/C=C/c1ccc([C@H]2[C@@H](CO)N(C(=O)CN(C)C)C23CN(C(=O)C2CCOCC2)C3)cc1
- DUX4 txn inh: 6
- DUX4 txn inh difference: 8
- DUX4 txn inh control: -2.5

C[C@@H](O)C#Cc1ccc2c(c1)O[C@@H](CN(C)C(=O)Cc1ccccn1)[C@@H](C)CN([C@@H](C)CO)S2(=O)=O
- DUX4 txn inh: -1
- DUX4 txn inh difference: -4
- DUX4 txn inh control: 2.7

COc1ccc2c3c(n(C)c2c1)[C@@H](CO)N(C(=O)c1ccc(F)cc1)CC31CCN(CC2CC2)CC1
- DUX4 txn inh: 2
- DUX4 txn inh difference: 12
- DUX4 txn inh control: -10

CCCC#Cc1ccc2c(c1)[C@H]1[C@H](CCN1S(=O)(=O)c1ccc(F)cc1)[C@H](CO)N2C
- DUX4 txn inh: 7
- DUX4 txn inh difference: 3
- DUX4 txn inh control: 3.3

Further entries follow.
SMILES	DUX4 txn inh	DUX4 txn inh difference	DUX4 txn inh control
C/C=C/c1ccc([C@H]2[C@@H](CO)N(C(C)=O)[C@@H]2CN(CC)C(=O)CC2CC2)cc1	-2	-2	0.2
COc1ccc2c3c([nH]c2c1)[C@H](CO)N(C(=O)c1ccccc1)CC31CCN(C(=O)c2cccc(F)c2)CC1	?	.	.
COc1ccccc1NC(=O)N1CCCCN2[C@@H](CO)[C@@H](c3ccc(-c4cccc(F)c4)cc3)[C@@H]2C1	?	.	.
CCC(=O)NC[C@H]1[C@@H](c2ccc(-c3ccccc3)cc2)[C@@H](CO)N1C(=O)C1CC1	2	0	2.1
C[C@@H]1CN([C@H](C)CO)C(=O)c2cc(NC(=O)Cc3cn(C)c4ccccc34)ccc2O[C@H]1CN(C)Cc1ccc2c(c1)OCO2	3	-3	6.2
CO[C@H]1CN(C)C(=O)c2ccc(NS(C)(=O)=O)cc2OC[C@H](C)NC[C@@H]1C	-8	-11	3.4
CCCC#Cc1ccc2c(c1)O[C@@H](CN(C)C(=O)CC1CC1)[C@H](C)CN([C@H](C)CO)S2(=O)=O	6	0	5.9
CN1C(=O)c2cc(NC(=O)c3cccc(F)c3)ccc2OC[C@@H]2O[C@H](CC(=O)Nc3ccccc3)CC[C@H]21	-2	-1	-0.8
CC(=O)N(C)C[C@H]1OCc2ccccc2-c2c(n(C)c3ccccc23)C(=O)N([C@H](C)CO)C[C@@H]1C	10	6	4.1
C/C=C/c1ccc([C@@H]2[C@H]3CN(S(=O)(=O)c4ccc(F)cc4)CCCCN3[C@H]2CO)cc1	3	0	2.7
CC(=O)NC[C@@H]1[C@@H](c2ccc(-c3cccnc3)cc2)[C@H](CO)N1C(=O)C1CCC1	-2	0	-1.8
CC(=O)N1[C@H](CNC(=O)C2CC2)[C@@H](c2ccc(-c3cccc(F)c3)cc2)[C@@H]1CO	0	-3	3.1
COc1cccc(S(=O)(=O)Nc2ccc3c(c2)C(=O)N(C)C[C@@H](OC)[C@@H](C)CN(C(=O)Cc2cccnc2)[C@H](C)CO3)c1	-5	-5	0.7
C[C@@H](NC(=O)C[C@H]1C=C[C@H](NC(=O)CN2CCOCC2)[C@@H](CO)O1)c1ccccc1	4	5	-0.4
CN(C)CC(=O)N1[C@@H]2c3cccc(=O)n3C[C@H]1[C@H](CO)[C@H]2C(=O)NCc1ccccc1	1	-3	4.0
C/C=C/c1ccc2c(c1)O[C@H](CN(C)Cc1ccccc1F)[C@@H](C)CN([C@H](C)CO)S2(=O)=O	5	0	4.9
COc1cccc(NC(=O)N[C@H]2C=C[C@@H](CC(=O)NCc3ccncn3)O[C@@H]2CO)c1	-4	-1	-3.1
COc1cccc(C(=O)Nc2ccc3c(c2)OC[C@H](C)N(C)C[C@@H](C)[C@@H](OC)CN(C)C3=O)c1	-3	-1	-1.4
O=C1CNC[C@@H]2[C@@H](c3ccc(C#Cc4cccnc4)cc3)[C@@H](CO)N12	-20*	-29*	9.9*
CCN1[C@@H]2c3ccc(-c4ccccc4)c(=O)n3C[C@@H]2[C@@H](CO)[C@@H]1C(=O)NCCc1cn(C)cn1	-3	1	-3.6
COCC(=O)N(C)C[C@@H]1[C@@H](c2ccccc2)[C@H](CO)N1C(=O)Cc1ccncc1	-5	-2	-2.9
CCC(=O)N1[C@H](CO)[C@@H](c2ccc(-c3ccccc3OC)cc2)C12CN(C(C)=O)C2	1	1	0.3
C[C@H]1CN([C@@H](C)CO)C(=O)CCCn2cc(nn2)CO[C@H]1CN(C)Cc1ccc2cccnc2c1	3	7	-3.4
CCNC(=O)c1cc2c(c(-c3cccc(-c4cccc(F)c4)c3)n1)[C@H](CCO)N([S@@](=O)C(C)(C)C)C2	2	-1	3.3
CCCN1[C@@H]2c3ccc(-c4ccccc4F)c(=O)n3C[C@@H]2[C@@H](CO)[C@@H]1C(=O)NC1CCC1	5	13	-8.1

The list goes on.
SMILES	DUX4 txn inh	DUX4 txn inh difference	DUX4 txn inh control
C[C@H]1CN([C@@H](C)CO)C(=O)c2ccccc2-c2ccccc2CO[C@@H]1CN(C)C(=O)[C@@H](Cc1ccccc1)N(C)C	0	0	0.6
Cc1noc(C)c1NC(=O)N(C)C[C@@H]1OCc2ccccc2-c2c(n(C)c3ccccc23)C(=O)N([C@H](C)CO)C[C@H]1C	7	-12	18
COC(=O)[C@@H]1[C@@H](CO)[C@@H]2Cn3c(cccc3=O)[C@@H]2N1CC1CCOCC1	0	-4	3.5
N#C[C@@H]1[C@H](c2ccc(C3=CCCCC3)cc2)[C@@H](CO)N1S(=O)(=O)c1cccc(F)c1	4	4	-0.3
O=C(C[C@@H]1CC[C@H]2[C@@H](COC[C@@H](O)CN2Cc2cccc(F)c2)O1)NCc1ccncc1	12	2	10
CC=Cc1ccc2n(c1=O)C[C@@H]1[C@@H](CO)[C@H](C(=O)NCC3CC3)N(C(=O)C3CCOCC3)[C@H]21 (mixture of isomers)	0	5	-4.7
CO[C@@H](CN(C)CC1CCOCC1)[C@@H](C)CN(C(=O)Nc1ccc(F)cc1)[C@@H](C)CO	5	1	4.1
Cc1cccc(S(=O)(=O)N2C[C@@H]3[C@H](c4ccccc42)[C@@H](CO)N3CC2CCOCC2)c1	-3	-3	0.1
CCCNC(=O)Nc1ccc2c(c1)C(=O)N(C)C[C@H](OC)[C@@H](C)CN(C(=O)C1CCCCC1)[C@H](C)CO2	-3	-2	-1.7
O=C(C1CCCC1)N1CC2(C1)[C@@H](c1ccccc1)[C@@H](CO)N2Cc1ccc(Cl)cc1	-8	-5	-2.5
C[C@@H]1CN([C@@H](C)CO)C(=O)CCCn2nncc2CO[C@H]1CN(C)Cc1ccc(C(=O)O)cc1	2	3	-0.1
COC(=O)N(C)C[C@H]1OCc2cn(nn2)CCCC(=O)N([C@H](C)CO)C[C@@H]1C	7	4	2.9
COc1ccc2c3c(n(C)c2c1)[C@H](CO)N(C(=O)Nc1ccc(F)cc1)CC31CN(Cc2cccc(F)c2)C1	?	.	.
COCC(=O)Nc1ccc2c(c1)C(=O)N(C)[C@H]1CC[C@@H](CC(=O)NCC3CC3)O[C@@H]1CO2	0	-4	4.3
CCCNC(=O)N1CC2(C1)[C@H](c1ccccc1)[C@H](CO)N2CC1CCOCC1	9	0	8.9
C/C=C/c1ccc([C@H]2[C@@H](CNC(=O)NC(C)C)N(C(=O)C3CCC3)[C@H]2CO)cc1	-6	-11	5.7
CCC(=O)N1CC2(C1)[C@@H](c1ccccc1)[C@@H](CO)N2C(=O)c1ccccc1	0	1	-1.3
COCC(=O)Nc1ccc2c(c1)C(=O)N(C)[C@@H]1CC[C@@H](CC(=O)NCCc3ccccc3)O[C@H]1CO2	3	6	-2.9
O=C(c1ccncc1)N1C[C@H]2[C@@H](c3ccccc31)[C@H](CO)N2C(=O)c1ccccc1F	1	0	1.6
C[C@H](CO)N1C[C@H](C)[C@H](CN(C)S(=O)(=O)c2cn(C)cn2)Oc2cc(C#Cc3cccc(F)c3)ccc2S1(=O)=O	-6	-3	-2.6
COc1cccc(C(=O)Nc2ccc3c(c2)OC[C@@H](C)N(C)C[C@H](C)[C@@H](OC)CN(C)C3=O)c1	0	-1	1.1
O=C([C@@H]1N[C@@H]2c3ccc(-c4ccc(F)cc4)c(=O)n3C[C@@H]2[C@H]1CO)N1CCc2ccccc2C1	-5	-6	1.3
CNC[C@H]1OCc2cn(nn2)CCCC(=O)N([C@H](C)CO)C[C@H]1C	2	0	1.6
O=C(N[C@@H]1CC[C@H](CCn2cc(-c3ccccn3)nn2)O[C@@H]1CO)c1ccncc1	7	2	5.3

Four records picked at random from those above, as already listed:
SMILES	DUX4 txn inh	DUX4 txn inh difference	DUX4 txn inh control
CCCN1[C@@H]2c3ccc(-c4ccccc4F)c(=O)n3C[C@@H]2[C@@H](CO)[C@@H]1C(=O)NC1CCC1	5	13	-8.1
CO[C@H]1CN(C)C(=O)c2ccc(NS(C)(=O)=O)cc2OC[C@H](C)NC[C@@H]1C	-8	-11	3.4
CCCC#Cc1ccc2c(c1)O[C@@H](CN(C)S(=O)(=O)c1cccc(F)c1)[C@@H](C)CN([C@H](C)CO)S2(=O)=O	3	0	3.1
CC(=O)N1[C@H](CNC(=O)C2CC2)[C@@H](c2ccc(-c3cccc(F)c3)cc2)[C@@H]1CO	0	-3	3.1

This is a subset, so the mix of outcomes need not match the whole.
